# Env fusion inh: blocks HIV Env-driven cell-cell fusion. HeLa-JRFL Env/CEM21 cell fusion, luciferase. inhibition, % at 12.3 µM. hit rate 1.1% among 360,000. AID 651610;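 active means mean replicate inhibition score of at least 50 and every replicate individually at or above 50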;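 further: 0% = plate neutral controls and 100% = maraviroc near 300 nM; one replicate is shown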
# UUG fidelity: alters start codon recognition fidelity in yeast. S. cerevisiae UUG-firefly luciferase reporter, luminescence/redox ratio. activity score, % at 18.7 µM. hit rate 0.13% among 350,000;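 active means replicate mean at a twofold rise or more, about +100% in these data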;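 further: firefly luciferase made from a UUG start codon reports start codon fidelity; reporter light over untreated wells divided by growth signal over untreated wells; some hits fall short of that in this replicate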
# * = called active by the depositor; [ ] = dose if it differs, or a comment.
SMILES,Env fusion inh,UUG fidelity
CC(C)NC(=O)[C@@]1(C)c2ccccc2C(=O)N(Cc2ccc(OC(F)(F)F)cc2)[C@H]1c1ccc(CO)cc1,5.2[16.7 µM],-0.5
C[C@@H]1CN([C@H](C)CO)S(=O)(=O)c2ccc(-c3ccccc3F)cc2O[C@H]1CN(C)S(C)(=O)=O,27.4[16.7 µM],-5.4
C[C@@H]1CN([C@H](C)CO)C(=O)c2cc(NC(=O)Cc3ccccc3)ccc2O[C@@H]1CN(C)Cc1ccc(-c2ccccc2)cc1,1.1[16.7 µM],9.0
C[C@H](CO)N1C[C@H](C)[C@@H](CN(C)C(=O)c2ccc(F)cc2)Oc2cc(C3=CCCCC3)ccc2S1(=O)=O,-42.5[16.7 µM],11.2
CN(C)c1ccc2c(c1)[C@@H]1C[C@H](CC(=O)NCc3ccc(Cl)cc3)O[C@H](CO)[C@@H]1O2,-15.7[16.7 µM],-6.4
COCC(=O)N(C)C[C@@H]1Oc2ncc(C3=CCCC3)cc2C(=O)N([C@@H](C)CO)C[C@@H]1C,-1.0[16.7 µM],-2.4
C[C@H]1CN([C@@H](C)CO)S(=O)(=O)c2ccc(C#Cc3cccnc3)cc2O[C@@H]1CN(C)CC1CCOCC1,-14.7[16.7 µM],9.3
CC(C)CC#Cc1ccc2c(c1)O[C@H](CN(C)C(=O)Cc1ccccc1)[C@@H](C)CN([C@@H](C)CO)S2(=O)=O,31.4[16.7 µM],1.0
C[C@H](CO)N1C[C@H](C)[C@@H](CN(C)Cc2cncnc2)Oc2ncc(-c3ccc(C#N)cc3)cc2C1=O,10.6[16.7 µM],0.7
CC(C)NC(=O)Nc1ccc2c(c1)C(=O)N([C@H](C)CO)C[C@@H](C)[C@@H](CN(C)Cc1ccc(C(=O)Nc3ccccc3N)cc1)O2,12.1[16.7 µM],10.1
CCCNC(=O)N(C)C[C@H]1Oc2cc(C#Cc3cccc(F)c3)ccc2S(=O)(=O)N([C@H](C)CO)C[C@@H]1C,4.0[16.7 µM],-0.3
O=C(C[C@@H]1C[C@@H]2c3cc(NC(=O)C4CCC4)ccc3O[C@@H]2[C@@H](CO)O1)NCc1cccnc1,-26.7[16.7 µM],-16.3
C[C@@H]1CN([C@@H](C)CO)C(=O)Cc2cc(NC(=O)CCCCCC(=O)Nc3ccccc3N)ccc2O[C@@H]1CN(C)CC1CCCCC1,-2.4[16.7 µM],16.9
C[C@@H]1CCCCO[C@@H](CN(C)S(C)(=O)=O)[C@H](C)CN([C@@H](C)CO)C(=O)c2cc(NC(=O)Nc3ccccc3)ccc2O1,12.1[16.7 µM],34.3
COCC(=O)N(C)C[C@H]1Oc2cc(-c3ccncc3)ccc2S(=O)(=O)N([C@@H](C)CO)C[C@@H]1C,-6.8[16.7 µM],-4.4
CN(C)CCCNC(=O)C[C@@H]1CC[C@H](NC(=O)Cc2cccnc2)[C@H](CO)O1,-7.1[16.7 µM],-31.9
COc1ccc(S(=O)(=O)N(C)C[C@@H]2Oc3ncc(-c4ccncc4)cc3C(=O)N([C@H](C)CO)C[C@H]2C)cc1,14.6[16.7 µM],18.9
Cc1noc(C)c1NC(=O)Nc1ccc2c(c1)CC(=O)N([C@@H](C)CO)C[C@@H](C)[C@@H](CN(C)CC1CCCCC1)O2,-29.3[16.7 µM],-10.6
O=S(=O)(c1ccc2ccccc2c1)N1CCN(Cc2cccc(OCCO)c2)CC1,-0.3[16.7 µM],6.1
C[C@H](CO)N1C[C@H](C)[C@H](CN(C)C(=O)C2CC2)Oc2cc(-c3ccccc3F)ccc2S1(=O)=O,21.3[16.7 µM],22.7
C[C@H]1CN([C@@H](C)CO)C(=O)c2cc(NC(=O)Cc3ccccc3)ccc2O[C@@H]1CN(C)C(=O)Nc1cccc2ccccc12,12.1[16.7 µM],26.3
COCCNC(=O)C[C@@H]1CC[C@@H](NS(=O)(=O)c2ccc(C)cc2)[C@@H](CO)O1,5.9[16.7 µM],2.5
C[C@H]1CN([C@@H](C)CO)C(=O)c2cc(NS(=O)(=O)c3ccc(Cl)cc3)ccc2O[C@H]1CN(C)S(=O)(=O)c1cccs1,9.4[16.7 µM],-9.1
C[C@@H]1CCCCO[C@H](CN(C)Cc2ccc(C(F)(F)F)cc2)[C@@H](C)CN([C@@H](C)CO)C(=O)c2cc(NC(=O)c3ccccc3)ccc2O1,14.5[16.7 µM],12.8
CC(=O)N(C)C[C@H]1Oc2cc(C#Cc3ccncc3)ccc2S(=O)(=O)N([C@@H](C)CO)C[C@@H]1C,-17.8[16.7 µM],0.7
C[C@@H]1CN([C@@H](C)CO)C(=O)c2cc(NC(=O)Cn3cnnn3)ccc2O[C@H]1CN(C)Cc1ccccc1,6.9[16.7 µM],9.1
O=C(C[C@@H]1C=C[C@H](NC(=O)CN2CCOCC2)[C@H](CO)O1)NC1CCC1,1.0[16.7 µM],-6.0
C[C@@H]1CCCCO[C@@H](CN(C)S(=O)(=O)c2cccs2)[C@H](C)CN([C@@H](C)CO)C(=O)c2cc(NC(=O)c3ccncc3)ccc2O1,-18.7[16.7 µM],-3.4
C[C@@H]1CN([C@H](C)CO)C(=O)Cc2cc(N(C)C)ccc2O[C@H]1CN(C)Cc1ccccc1,3.9[16.7 µM],-11.2
COc1cccc(C(=O)Nc2ccc3c(c2)C(=O)N(C)[C@@H]2CC[C@H](CC(=O)NCc4ccc(F)cc4)O[C@@H]2CO3)c1,12.5[16.7 µM],2.8
CC(=O)CC(=O)N1C(=O)N(C)[C@@]2(C)Oc3ccccc3[C@@H]1[C@H]2COC(=O)c1ccc([N+](=O)[O-])cc1,8.8[16.7 µM],-14.6
O=C(C[C@@H]1CC[C@@H]2[C@H](COC[C@@H](O)CN2S(=O)(=O)c2ccccc2)O1)N1CCOCC1,-2.6[16.7 µM],-2.7
C[C@@H]1CN([C@@H](C)CO)S(=O)(=O)c2ccc(C3=CCCCC3)cc2O[C@@H]1CN(C)S(C)(=O)=O,11.4[16.7 µM],0.6
CCNC(=O)C[C@@H]1C=C[C@@H](NC(=O)C2CCOCC2)[C@@H](CO)O1,18.1[16.7 µM],-14.1
C[C@@H]1CCCCO[C@H](CN(C)C(=O)NC2CCCCC2)[C@H](C)CN([C@H](C)CO)C(=O)c2cc(NS(=O)(=O)c3cn(C)cn3)ccc2O1,22.7[16.7 µM],-1.9
C[C@@H]1CN([C@@H](C)CO)C(=O)c2cc(NS(=O)(=O)c3cn(C)cn3)ccc2O[C@H]1CN(C)CC1CCCCC1,1.8[16.7 µM],-1.9
COc1ccc(CN(C)C[C@H]2Oc3ccc(NC(=O)Cc4cn(C)c5ccccc45)cc3C(=O)N([C@@H](C)CO)C[C@@H]2C)cc1,16.7[16.7 µM],-10.7
CCCN(C)C[C@H]1OCCCC[C@@H](C)Oc2ccc(NC(=O)CCCN(C)C)cc2C(=O)N([C@H](C)CO)C[C@H]1C,18.6[16.7 µM],8.8
C[C@H](CO)N1C[C@H](C)[C@@H](CN(C)S(C)(=O)=O)OCCCC[C@H](C)Oc2ccc(NC(=O)Nc3ccc(C(F)(F)F)cc3)cc2C1=O,-4.4[16.7 µM],1.0
O=C(C[C@H]1C=C[C@H](NC(=O)CN2CCOCC2)[C@H](CO)O1)NCCc1ccccc1,-17.2[16.7 µM],3.3
Cc1ccccc1S(=O)(=O)NCC[C@H]1CC[C@H](NC(=O)C2CCC2)[C@H](CO)O1,-17.6[16.7 µM],25.1
COc1ccc(CN(C)C[C@@H]2Oc3ccc(NC(=O)C4CCCCC4)cc3CC(=O)N([C@@H](C)CO)C[C@@H]2C)cc1,-47.7[16.7 µM],1.6
CO[C@H]1CN(C)C(=O)c2cc(NC(=O)NC(C)C)ccc2OC[C@@H](C)N(C(=O)NC(C)C)C[C@@H]1C,1.7[16.7 µM],-3.4
C[C@@H]1CN([C@H](C)CO)C(=O)Cc2cc(N(C)C)ccc2O[C@H]1CN(C)Cc1ccncc1,-10.5[16.7 µM],-0.9
Cc1ccc(S(=O)(=O)Nc2ccc3c(c2)C(=O)N([C@H](C)CO)C[C@H](C)[C@H](CN(C)S(C)(=O)=O)OCCCC[C@@H](C)O3)cc1,-23.7[16.7 µM],-2.3
CN(C)CCCNC(=O)C[C@@H]1C=C[C@H](NS(=O)(=O)c2ccccc2)[C@@H](CO)O1,6.2[16.7 µM],6.9
Cc1noc(C)c1NC(=O)Nc1ccc2c(c1)C(=O)N([C@@H](C)CO)C[C@@H](C)[C@@H](CN(C)C)OCCCC[C@@H](C)O2,8.1[16.7 µM],10.1
C[C@H](CO)N1C[C@H](C)[C@@H](CN(C)Cc2ccc(Oc3ccccc3)cc2)Oc2ccc(NS(C)(=O)=O)cc2C1=O,18.7[16.7 µM],5.0
CCCC#Cc1ccc([C@H]2[C@@H](C#N)N(C(=O)C3CCC3)[C@@H]2CO)cc1,-8.6[16.7 µM],0.3
Cc1ccc(S(=O)(=O)Nc2ccc3c(c2)C(=O)N([C@H](C)CO)C[C@H](C)[C@@H](CN(C)S(=O)(=O)c2ccc(C)cc2)OCCCC[C@@H](C)O3)cc1,-5.0[16.7 µM],0.0
C[C@H](CO)N1C[C@H](C)[C@H](CN(C)CC2CC2)OCCCC[C@H](C)Oc2ccc(NS(=O)(=O)c3ccc(Cl)cc3)cc2C1=O,13.6[16.7 µM],6.0
Cc1noc(C)c1NC(=O)N(C)C[C@H]1OCCCC[C@H](C)Oc2ccc(NS(=O)(=O)c3c(C)noc3C)cc2C(=O)N([C@H](C)CO)C[C@@H]1C,2.9[16.7 µM],2.7
Cc1noc(C)c1NC(=O)N(C)C[C@@H]1Oc2ccc(NC(=O)CCC(F)(F)F)cc2CC(=O)N([C@H](C)CO)C[C@H]1C,-9.0[16.7 µM],-3.9
Cc1ccc(S(=O)(=O)Nc2ccc3c(c2)C(=O)N([C@H](C)CO)C[C@H](C)[C@H](CN(C)S(=O)(=O)c2cn(C)cn2)OCCCC[C@@H](C)O3)cc1,-22.4[16.7 µM],0.6
COc1ccc(-c2ccc([C@H]3[C@H](C#N)N(C(=O)c4cccc(F)c4)[C@H]3CO)cc2)cc1,-5.1[16.7 µM],-8.2
CNC[C@@H]1Oc2ccc(NC(=O)Cc3cn(C)c4ccccc34)cc2C(=O)N([C@H](C)CO)C[C@@H]1C,7.1[16.7 µM],2.4
C[C@H](CO)N1C[C@H](C)[C@H](CN(C)Cc2ccncc2)Oc2cc(C#CC(C)(C)O)ccc2S1(=O)=O,-30.1[16.7 µM],-10.7
C[C@@H]1CN([C@H](C)CO)C(=O)Cc2cc(NC(=O)Nc3ccccc3)ccc2O[C@H]1CN(C)C(=O)Nc1ccccc1,-3.5[16.7 µM],-1.3
C[C@H]1CCCCO[C@H](CN(C)Cc2ccc(C(F)(F)F)cc2)[C@@H](C)CN([C@@H](C)CO)C(=O)c2cc(NS(C)(=O)=O)ccc2O1,36.4[16.7 µM],5.8
C[C@@H](NC(=O)C[C@@H]1CC[C@H]2[C@@H](COC[C@H](O)CN2C(=O)Nc2cccc(Cl)c2)O1)c1ccccc1,-25.4[16.7 µM],4.5

# Record cards (already shown):
# Cc1ccccc1S(=O)(=O)NCC[C@H]1CC[C@H](NC(=O)C2CCC2)[C@H](CO)O1 is listed with Env fusion inh = -17.6[16.7 µM]; UUG fidelity = 25.1
# Cc1noc(C)c1NC(=O)N(C)C[C@H]1OCCCC[C@H](C)Oc2ccc(NS(=O)(=O)c3c(C)noc3C)cc2C(=O)N([C@H](C)CO)C[C@@H]1C is listed with Env fusion inh = 2.9[16.7 µM]; UUG fidelity = 2.7

# Reformatted field by field: part of the list above
Cc1noc(C)c1NC(=O)N(C)C[C@@H]1Oc2ccc(NC(=O)CCC(F)(F)F)cc2CC(=O)N([C@H](C)CO)C[C@H]1C
  Env fusion inh: -9.0[16.7 µM]; UUG fidelity: -3.9
Cc1ccc(S(=O)(=O)Nc2ccc3c(c2)C(=O)N([C@H](C)CO)C[C@H](C)[C@H](CN(C)S(=O)(=O)c2cn(C)cn2)OCCCC[C@@H](C)O3)cc1
  Env fusion inh: -22.4[16.7 µM]; UUG fidelity: 0.6
COc1ccc(-c2ccc([C@H]3[C@H](C#N)N(C(=O)c4cccc(F)c4)[C@H]3CO)cc2)cc1
  Env fusion inh: -5.1[16.7 µM]; UUG fidelity: -8.2
CNC[C@@H]1Oc2ccc(NC(=O)Cc3cn(C)c4ccccc34)cc2C(=O)N([C@H](C)CO)C[C@@H]1C
  Env fusion inh: 7.1[16.7 µM]; UUG fidelity: 2.4

# Other structures
SMILES,Env fusion inh,UUG fidelity
C[C@@H]1CN([C@H](C)CO)C(=O)Cc2cc(NS(=O)(=O)c3ccc(F)cc3)ccc2O[C@H]1CN(C)C(=O)Nc1ccccc1,-12.0[16.7 µM],-1.0
C[C@@H]1CN([C@@H](C)CO)S(=O)(=O)c2ccc(C#CC3CC3)cc2O[C@H]1CN(C)C(=O)CC1CC1,-14.6[16.7 µM],16.8
CCC(=O)Nc1ccc2c(c1)C(=O)N(C)C[C@@H](OC)[C@H](C)CN(C(=O)NC1CCCCC1)[C@H](C)CO2,17.4[16.7 µM],11.4
C[C@@H]1CN([C@@H](C)CO)S(=O)(=O)c2ccc(-c3cncnc3)cc2O[C@H]1CN(C)C(=O)C1CC1,-4.7[16.7 µM],3.7
C[C@@H]1CCCCO[C@H](CN(C)C(=O)Nc2cccc3ccccc23)[C@H](C)CN([C@@H](C)CO)C(=O)c2cc(NC(=O)Nc3ccccc3)ccc2O1,-100.3[16.7 µM],3.8
C[C@@H]1CN([C@@H](C)CO)C(=O)c2cccc(NC(=O)C3CC3)c2O[C@@H]1CN(C)C,2.7[16.7 µM],-3.7
Cc1ccc(S(=O)(=O)N(C)C[C@H]2Oc3ccc(NS(=O)(=O)c4ccccc4)cc3C(=O)N([C@@H](C)CO)C[C@H]2C)cc1,-16.3[16.7 µM],1.2

# These rows are one share of the data (hit frequency here may not be typical).
